BJeLR lethal – kills HRASV12-expressing BJeLR cells. 300,000 tested, 0.17% active. BJeLR (HRASV12) viability, CellTiter-Glo ATP luminescence, 48 h; reference of the scale not given here. inhibition, % (no concentration beside the values). AID 1554;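 active = replicate mean above 50%; inconclusive = above 50% but judged a plate artefact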;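 also: 50 nL library stock added to about 25 µL; numbers are from one replicate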
PrP 5UTR inh – suppresses PrP 5' UTR mRNA reporter expression; cell-based PrP 5' UTR mRNA reporter, plate reader; inhibition, % (test concentration not listed); 340,000 tested, 0.35% active;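 active = every replicate at 50% or more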;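 also: 0 = median of the neutral control wells; tested in H4 reporter cells; numbers are from one replicate; inactives centre near -14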
Autofluor counter – counter-screen for toxin protease inhibitors: compound fluorescence. compound autofluorescence counterscreen, microsphere flow cytometry; hits give high values. fluorescence intensity (test concentration not listed). 360,000 tested, 3.1% active;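 active = at least 3 SD above the mean of all compounds, about 16000 in these data; inconclusive = too few beads counted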;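 also: 100 nL of 1 mM stock went into each well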
Mtb hypoxia inh – inhibitors of hypoxia-regulated fluorescent reporter in Mycobacterium tuberculosis; AID 1159583; 300,000 tested, 0.1% active; fluorescence inhibition, % (no concentration beside the values); M. tuberculosis hypoxia-regulated fluorescent reporter, fluorescence;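 active = 35 to 45% if threefold the growth effect, above 45% if 1.5-fold the growth effect; inactive = the rest, general growth blockers included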;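 also: wells of about 50 µL received 100 nL stock; 0% = vehicle wells and 100% = reference inhibitor wells; whole bacteria with a GFP reporter of the hypoxia response; strong numbers were not always called active; many hits fall short of the cut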
RN4220 kill – kills Staphylococcus aureus RN4220; S. aureus RN4220 growth, OD600, 16 h; inhibition, % (no concentration beside the values); 330,000 tested, 0.33% active; AID 1259311;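 active = z-score of -3 or lower and OD600 up to 0.18 on both plates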;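 also: plate controls were untreated cells for no effect and reference antibiotic for full effect; stock transfer was 100 nL into about 80 µL; one replicate is shown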
Sa ugtP lethal – compounds lethal to S. aureus RN4220 ugtP deletion mutant | OD600 growth, 16 h; some inactives read as strong as hits | growth inhibition, % (concentration not given with the values) | 330,000 tested, 0.54% active;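 active = z-score under -3 and OD600 up to 0.15 on both plates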;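 also: plate controls were untreated wells for no effect and antibiotic for full effect; wells of about 80 µL received 100 nL stock; the first replicate is given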
Mtb hypoxia inh growth – second read-out of Mtb hypoxia inh, no call of its own (marks repeat the call); growth inhibition, %; measured here: M. tuberculosis growth (absorbance);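 0% = vehicle and 100% = reference antibiotic; read after six days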
Active calls of the source: *; ? = inconclusive; nt = no result given.

A first look:
SMILES	BJeLR lethal	PrP 5UTR inh	Autofluor counter	Mtb hypoxia inh	Mtb hypoxia inh growth	RN4220 kill	Sa ugtP lethal
O=C1CCc2cc(S(=O)(=O)N3CCC(C(=O)Nc4nccs4)CC3)ccc2N1	2.3	-11.2	4391	nt	nt	1.7	9.6
COc1ccccc1C(=O)NCCN1CCN(C(=O)c2ccccc2OC)CC1	9.8	-9.2	4338	-7.1	6.0	0.1	-3.1

Results, from the first entry:
SMILES	BJeLR lethal	PrP 5UTR inh	Autofluor counter	Mtb hypoxia inh	Mtb hypoxia inh growth	RN4220 kill	Sa ugtP lethal
O=C1CCc2cc(S(=O)(=O)N3CCC(C(=O)Nc4nccs4)CC3)ccc2N1	2.3	-11.2	4391	nt	nt	1.7	9.6
COc1ccccc1C(=O)NCCN1CCN(C(=O)c2ccccc2OC)CC1	9.8	-9.2	4338	-7.1	6.0	0.1	-3.1
Cc1ccccc1-c1noc(-c2ccc(O)cc2)n1	14.6	-148.4	6563	2.4	-0.1	1.2	1.7
CC(C)/C=N/NC(=O)c1cc(Br)ccc1O	-0.9	-17.6	2007	nt	nt	nt	nt
CCOC(=O)c1ccccc1NC(=O)Cc1ccccc1OC	-9.8	-16.2	20686*	5.4	5.3	2.5	1.8
NC(=O)Nc1cccc(C(F)(F)F)c1	1.6	-7.5	23258*	-4.0	6.4	2.4	-0.7
CC(C)(O)CC[C@@H](O)[C@](C)(O)[C@H]1CC[C@@]2(O)C3=CC(=O)[C@@H]4C[C@@H](O)[C@@H](O)C[C@]4(C)[C@H]3CC[C@]12C	0.9	-2.3	6129	nt	nt	nt	nt
Cc1ccc(-c2nc3ccccc3c(=O)n2-c2cccc(O)c2)cc1	-4.8	-24.5	3935	17.3	23.9	9.8	4.7
CC(=O)c1cccc(NC(=O)Nc2cccnc2)c1	3.9	7.1	4261	10.1	7.2	0.8	1.4
Cc1ccc(CCNC(=O)C2CCCN(S(=O)(=O)c3cccc4nsnc34)C2)cc1 (configuration not stated)	1.1	-23.0	4888	nt	nt	-3.7	5.7
O=C1c2ccccc2C(=O)N1CCCn1nnc(-c2ccc(N3CCOCC3)cc2)n1	-3.7	-32.0	8011	1.4	-3.3	2.1	4.6
O=C(c1ccccc1Sc1ccccc1[N+](=O)[O-])N1CCCCC1	10.5	-21.0	3355	-5.3	-2.2	2.9	4.1
C=CCN(C(=O)c1ccccc1)c1ccc(OC)cc1	-0.7	-8.0	4453	-10.0	-1.3	0.5	0.2
O=C(c1ccc(F)cc1)c1c[nH]c(C(=O)NCc2ccco2)c1	-7.3	0.5	2459	nt	nt	1.0	-3.5
Cc1ccccc1C[n+]1cccc2ccccc21	-2.0	-22.3	3896	16.8	4.9	2.0	2.7
O=S(=O)(c1ccc(-c2cn3ccccc3n2)cc1)N1CCOCC1	1.5	-21.6	22528*	15.4	7.9	0.2	-4.4
CC(C)Oc1ccc(Cc2cnc(=S)[nH]c2N)cc1	-4.7	-12.4	4408	-3.4	7.2	1.6	6.1
CC1CCN(CC(=O)Nc2ccc(S(=O)(=O)N3CCC(C)CC3)cc2)CC1	7.5	-2.8	3890	-3.2	0.4	-3.5	3.6
Nc1c(S(=O)(=O)c2cccs2)c2nc3ccccc3nc2n1CC1CCCO1 (configuration not stated)	nt	-22.7	22380*	2.5	-4.9	-0.3	2.4
NC(=O)Nc1ccccc1C(=O)Nc1ccc2ccccc2c1	-10.6	8.6	nt	6.3	-6.0	0.2	1.7
COc1ccc2c(c1)C(=O)c1ccccc1CO2	-0.5	-113.0	3452	-18.3	-6.8	14.1	1.7
Cc1ccc(OCc2nnc(NC(=O)c3ccco3)s2)cc1	3.0	-8.0	3298	10.8	5.5	10.5	-6.3
CCOC(=O)c1ccc(NC(=O)NCc2ccccc2OC)cc1	-5.3	-7.1	4915	-3.6	5.4	-0.8	-2.3
Cc1noc(NS(=O)(=O)c2ccc(NC(=O)/C=C/c3ccccc3)cc2)c1C	nt	-4.2	4499	1.2	7.9	1.5	0.2
CCOc1cc(C(=O)N2CCN(c3ccccc3)CC2)cc(OCC)c1OCC	8.6	-10.2	3241	9.0	6.5	4.3	-6.1
CC(N)=C(C#N)C(=O)COc1ccc(Cl)cc1Cl	nt	nt	nt	6.2	-0.2	2.1	-1.2
CCn1c(=O)cc(SCC(=O)Nc2ccc(C)cn2)c2ccccc21	0.1	-13.8	2147	15.5	4.1	9.7	4.2
O=c1c2c3nc4ccccc4nc3n(N=Cc3ccncc3)c2ncn1-c1ccccc1	nt	nt	nt	-0.3	-6.4	0.6	2.6
CCOc1ccc(-c2nc(CSc3nnc(C)s3)cs2)cc1OC	5.3	-10.7	3809	nt	nt	3.4	2.5
O=C(CCCNS(=O)(=O)c1ccc(F)cc1)Nc1ccc(F)cc1	-7.7	-28.0	3717	-2.2	3.6	1.6	-0.9
Cc1cccc(/C(N)=N/OC(=O)CCCc2ccccc2)c1	5.7	-29.3	5209	1.7	2.9	5.1	13.6
Nc1nnc(-c2ccccc2[N+](=O)[O-])o1	-3.4	-24.2	6420	14.1	11.7	0.9	8.9
COc1ccc(OCCn2c(C)c(/C=N/n3cnnc3)c3ccccc32)cc1	3.4	-8.3	2174	nt	nt	nt	nt
CCOc1ncccc1C(=O)OCC(=O)Nc1c(C)cc(C)cc1C	7.2	-7.3	3608	-0.6	3.4	9.7	10.0
CC1CCCC(NC(=O)CN(C)S(=O)(=O)c2cccc3cccnc23)C1C (configuration not stated)	0.4	-5.6	3926	nt	nt	6.0	6.1
CCCCn1c(NCc2ccc(N(C)C)cc2)nc2ccccc21	9.6	-25.4	4687	10.2	14.9	2.1	11.5
Cc1cccc(-n2c(O)c(C=NCCN3CCCCC3)c(=O)[nH]c2=O)c1	0.7	-17.2	2993	-0.8	4.5	-3.4	-4.1
Cc1cc(NC(=O)CSc2nc3c(C)cccc3cc2C)no1	-4.6	-19.2	3177	4.3	-5.3	-0.2	0.3
COc1ccc(S(=O)(=O)N2CCC(C(=O)NCCC(=O)NCc3cccc(OC)c3)CC2)cc1	0.7	-11.0	6143	10.7	-5.0	3.1	6.3
N=c1c2c3c(sc2ncn1CCN1CCOCC1)CCCCC3	8.6	-24.5	3399	10.8	11.5	3.1	4.4
C=CCn1c(CCC)nc2ccccc21	2.1	-63.5	4013	13.0	19.0	6.6	1.9
Cc1cccn2c(=O)c3cc(C(=O)NC4CCCCC4C)n(C)c3nc12 (configuration not stated)	6.6	-15.7	5360	-2.8	9.0	4.6	1.5
C#CCN1CCN(c2cccc(C(F)(F)F)c2)CC1	1.8	-15.8	4180	-2.0	8.5	10.8	7.7
COC(=O)c1c(NC(=O)C2COc3ccccc3O2)sc2c1CCN(C(C)=O)C2 (configuration not stated)	-0.4	-2.5	2627	17.4	14.8	8.6	7.6
CC(C)OC(=O)CSc1nnc(Cc2ccccc2)n1C	3.5	12.3	16479*	-1.6	-5.3	0.3	1.6
COc1ccc(OC)c(NC(=O)CN(Cc2ccc(F)cc2)C2CCCCC2)c1	3.6	-3.4	5719	11.6	0.6	-10.9	-11.0
CCCc1ccc(S(=O)(=O)N2CCN(Cc3ccco3)CC2)cc1	-16.9	-9.9	4260	14.6	-32.1	1.7	11.7
S=C(Nc1ccccc1Cl)N1CCCC(c2ccccc2)=N1	-4.5	1.9	3960	nt	nt	nt	nt
N#Cc1cnc(Nc2ccc(F)cc2)nc1N	-4.9	-29.4	3823	-12.1	0.7	6.1	1.4
CC(=O)c1ccc(N2Cc3ccccc3C2=NC(=O)Nc2ccc(Cl)cc2)cc1	nt	nt	nt	-2.3	8.4	-3.2	12.5
COc1ccc(S(=O)(=O)N2CCN(Cc3cc(OC)c(OC)c(OC)c3)CC2)cc1	1.3	-16.6	3107	1.8	2.7	2.0	7.3
COC(=O)C(C)Oc1ccc(Cl)c(CN2OCC(C)(C)C2=O)c1 (configuration not stated)	-14.7	-20.2	5609	17.0	6.9	2.0	13.2
CS(=O)(=O)Nc1cccc(C2=NN(C(=O)c3ccco3)C(c3ccco3)C2)c1 (configuration not stated)	3.6	-9.7	5903	0.8	2.9	7.5	4.3
O=C(Nc1cccc(Cl)c1)C1CCCCC1	nt	-24.5	4158	4.8	7.2	2.2	-0.1
CC(=NNC(=O)c1cccc(N2CCCC2=O)c1)c1ccncc1	nt	nt	nt	2.5	1.8	3.6	5.1
COCc1cc(=O)[nH]c(/N=C(\N)Nc2ccc(Cl)c(Cl)c2)n1	5.0	-33.3	3843	nt	nt	nt	nt
Cc1cc(N/C=C(\C#N)S(=O)(=O)c2ccccc2Cl)nc(C)n1	-7.2	-15.3	5622	-27.4	-24.0	10.7	23.9
CC1=C(/C=C/c2ccccc2)CCN(C)C1	-11.0	-31.3	11602	-4.1	-7.9	-2.2	2.0
Cc1nc(COC(=O)c2ccc(CO)cc2)cs1	3.0	-10.9	9947	-5.0	5.7	-4.6	-9.7
CCOC(=O)c1cnn(-c2nc(OC)cc(OC)n2)c1C(F)(F)F	-4.4	-3.1	2608	12.8	6.1	5.2	31.4
(further entries)
SMILES	BJeLR lethal	PrP 5UTR inh	Autofluor counter	Mtb hypoxia inh	Mtb hypoxia inh growth	RN4220 kill	Sa ugtP lethal
O=c1[nH]c2c(cnn2-c2ccc(Cl)cc2)c(=O)n1-c1cccc(Cl)c1	0.5	3.1	3464	-3.5	5.4	11.0	4.8
CC(NC(=O)CSc1ncccc1C(=O)O)C1CC2CCC1C2 (configuration not stated)	3.5	-1.7	4973	6.0	-2.2	7.0	4.4
CC(C)(C(=O)Nc1nccs1)c1ccccc1	-21.9	-72.5	3872	-3.9	-0.3	11.2	5.4
Cc1cc(C)cc(OCc2nnc(SCC(=O)c3ccccc3)o2)c1	-1.1	-43.9	19614*	4.6	8.1	7.0	-5.2
Cc1nn(C)c(C)c1CCC(=O)N1CCCC(C(=O)c2cccc(OC(C)C)c2)C1 (configuration not stated)	2.9	-18.8	5082	-2.2	-1.3	4.4	11.7
Cc1cc(C)nc(SCCCNCc2ccc(Br)cc2)n1	-5.3	-15.4	3663	0.5	3.5	4.8	-2.2
O=C(CN1CCN(c2ccccc2O)CC1)Nc1ccc2c(c1)CCC2	5.1	-0.8	1880	8.4	-0.5	7.7	1.6
O=C(CSc1c[nH]c2ccccc12)NCC1CCCO1 (configuration not stated)	9.0	-16.6	5583	2.3	5.2	15.8	15.2
CCc1ccc(NC(=O)c2ccc(F)c(S(=O)(=O)N(CC)c3ccccc3)c2)cc1	4.0	-15.0	2447	-12.3	7.4	0.7	-2.5
CN(CC(=O)Nc1ccccc1C(F)(F)F)C(=O)C1=COCCO1	7.5	-10.6	5315	6.0	-1.0	3.5	5.6
Cn1c(=O)[nH]c(=O)c2c1nc(Br)n2CC(O)COc1ccccc1 (configuration not stated)	-12.3	-50.4	11739	13.7	6.5	3.2	-0.7
O=C(/C=C/c1ccc(F)cc1)N1CCc2ccccc2C1	nt	-39.6	3725	0.4	-3.1	9.3	4.6
CCCCOc1ccccc1C1NC(=O)NC(C)=C1C(=O)OCCOC (configuration not stated)	5.1	-7.2	5738	-6.2	-14.8	-0.3	-1.8
CCS(=O)(=O)N1Cc2ccccc2CC1C(=O)N1CCN(c2ccccc2)CC1 (configuration not stated)	-2.5	-21.5	?	20.9	8.8	2.9	5.0
N=c1oc2cc(O)ccc2cc1C(=O)Nc1ccc(F)cc1	1.0	-66.2	3766	3.2	10.4	-1.4	12.4
CCOCc1nnc(NC(=O)CS(=O)(=O)c2ccc(C)cc2)s1	6.1	-20.8	4153	-2.7	0.6	1.7	4.3
COc1ccc(Br)cc1CNC(=O)CCCc1cn(C)c2ccccc12	-3.0	-13.8	4522	8.6	8.5	0.5	20.0
COc1ccc([N+](=O)[O-])cc1C(=O)C(=O)c1ccccc1	-7.5	2.7	3230	-4.3	0.0	4.7	8.0
O=C(CCCc1ccccc1)NCCC1=CCCCC1	2.5	-32.1	4218	-7.5	8.2	-3.3	-3.1
CCC(C)NC(=O)c1ccc2nc(Cc3ccc(OC)cc3)oc2c1 (configuration not stated)	3.2	-10.8	3096	-3.8	0.0	0.3	10.2
CC(C)n1c(SCC(=O)N2CCN(C)CC2)nc2c1c(=O)n(C)c(=O)n2C	-4.0	1.6	4163	16.3	8.1	-0.3	5.2
Cc1cc(C(=O)NNc2ccc(F)cc2F)no1	-6.6	-14.9	3142	nt	nt	nt	nt
